HNF4A DNA FP: change in binding of human HNF4A to DNA, primary screen, biochemical, fluorescence polarization, FITC-DNA. Hepatocyte nuclear factor 4-alpha (Homo sapiens), P41235. 1 h. activity change, % at 10 µM. 360,000 tested, 0.3% active. AID 1224865, 2016; in the data active = activity change above about 30%, passing the limit was not always enough;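 also: controls were the assay level and a saturating level of protein; the project sought stronger binding though the title names inhibitors; some compounds called inactive have numbers as strong as hits; positive values seem to mean higher polarization but the record does not say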
ALR inh: inhibitors of human ALR sulfhydryl oxidase, primary screen, biochemical, H2O2 detection, HRP-luminol luminescence, single point; 290,000 tested, 3.8% active; purified ALR, DTT oxidation; inhibition, % (no concentration beside the values); AID 485317, 2010;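 active = mean and each replicate at 75% or more; inconclusive = only one of the two met; inactive = neither met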;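 also: stock transfer was 7.5 nL into about 7.5 µL; 0% = neutral wells and 100% = wells with inactivated enzyme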
LANA-H2A inh: blockers of LANA interaction with H2A/H2B – biochemical, FP readout, HTS, primary screen. Protein LANA1 (Human herpesvirus 8 type P (isolate GK18)), Q9QR71. inhibition, % (concentration not given with the values). cell-free LANA-H2A/H2B peptide, fluorescence polarization. AID 2629, 2010. 320,000 tested, 0.6% active; in the data active = inhibition mostly above about 10%, no sharp cut-off; inactive = mostly below about 6.7%;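 also: stock transfer was 7.5 nL into about 10 µL; 0% = median of vehicle wells and 100% = median of positive control wells; one replicate is shown; the record names a cut of 25% in any replicate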
Target sequence (Q9QR71 whole entry, looked up): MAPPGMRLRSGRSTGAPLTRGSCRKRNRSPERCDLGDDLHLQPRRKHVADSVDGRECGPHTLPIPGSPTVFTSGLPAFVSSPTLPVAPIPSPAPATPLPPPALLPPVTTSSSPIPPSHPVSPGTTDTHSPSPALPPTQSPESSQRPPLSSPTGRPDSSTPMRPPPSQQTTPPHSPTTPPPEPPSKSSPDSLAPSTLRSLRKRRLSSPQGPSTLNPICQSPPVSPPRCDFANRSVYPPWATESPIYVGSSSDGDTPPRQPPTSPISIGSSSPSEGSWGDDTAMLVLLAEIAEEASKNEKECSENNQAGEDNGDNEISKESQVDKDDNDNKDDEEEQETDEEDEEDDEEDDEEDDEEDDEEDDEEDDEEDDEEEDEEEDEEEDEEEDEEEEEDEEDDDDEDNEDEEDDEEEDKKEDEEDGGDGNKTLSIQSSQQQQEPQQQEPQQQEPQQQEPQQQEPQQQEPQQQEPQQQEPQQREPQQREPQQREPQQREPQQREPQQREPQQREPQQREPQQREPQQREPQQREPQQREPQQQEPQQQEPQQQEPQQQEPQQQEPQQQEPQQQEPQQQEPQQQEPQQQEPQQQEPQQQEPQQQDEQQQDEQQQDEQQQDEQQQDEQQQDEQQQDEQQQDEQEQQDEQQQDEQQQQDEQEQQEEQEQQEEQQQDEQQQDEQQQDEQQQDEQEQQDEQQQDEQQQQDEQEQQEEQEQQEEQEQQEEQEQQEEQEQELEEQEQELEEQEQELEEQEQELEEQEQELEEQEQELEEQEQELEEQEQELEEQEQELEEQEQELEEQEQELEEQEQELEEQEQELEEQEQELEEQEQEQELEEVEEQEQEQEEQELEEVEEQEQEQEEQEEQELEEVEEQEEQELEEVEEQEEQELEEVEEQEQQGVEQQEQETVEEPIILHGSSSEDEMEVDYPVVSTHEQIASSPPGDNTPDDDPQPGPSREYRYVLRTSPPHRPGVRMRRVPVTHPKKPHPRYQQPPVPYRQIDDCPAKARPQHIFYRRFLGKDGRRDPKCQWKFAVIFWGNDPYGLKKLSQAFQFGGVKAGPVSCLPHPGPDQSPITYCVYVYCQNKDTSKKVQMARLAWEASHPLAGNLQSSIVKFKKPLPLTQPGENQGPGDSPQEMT
RanGTP-Impb inh: inhibitors of RanGTP-importin-beta interaction, primary screen, biochemical, FRET, CFP-Ran, YFP-importin-beta, homogeneous; Ran GTPase (GTP-bound) - importin-beta complex; cell-free CFP-Ran/YFP-importin-beta FRET ratio; inhibition, % (test concentration not listed); 300,000 tested, 1.1% active; AID 2216, 2009;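 active = most replicates above 15%; inconclusive = exactly half above 15%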;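 also: 0% = DMSO wells and 100% = Ran loaded with GDP instead of GTP; wells of about 40 µL received 100 nL stock; the first replicate is given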
Beta2AR agonist: beta2AR agonists driving receptor internalization, primary screen, cell-based, FAP fluorogen, flow cytometry. Beta-2 adrenergic receptor (Homo sapiens), P07550. Am2.2-beta2AR cells; reference of the scale not given here. response, % (no concentration beside the values). 340,000 tested, 0.43% active. AID 504454, 2011;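 active = response above a set limit, near 3 SD of response in nonfluorescent compounds, cut at about 42% in these data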;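 also: stock transfer was 100 nL into about 11 µL; a reference agonist was the positive control; negative values mostly stem from fluorescent compounds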
Calb FLC: C. albicans growth inhibition with fluconazole, primary screen, CaCi-2 strain, Alamar Blue fluorescence | C. albicans CaCi-2 (fluconazole-resistant clinical isolate) + fluconazole, 48 h | growth inhibition, % (concentration not given with the values) | 300,000 tested, 0.57% active;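 active = most replicates above 75%; inconclusive = exactly half above 75%; inactive = most below 75%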;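 also: all wells also contain fluconazole at 8 µg/ml as a sub-toxic cotreatment; 0% = median of DMSO wells and 100% = median of geldanamycin control wells; wells of about 8 µL received 7.5 nL stock; the first replicate is given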
Vif A3G: inhibitors of Vif binding to APOBEC3G peptide, primary screen, biochemical, TR-FRET, GST-Vif 1-94, biotin-A3G peptide, dose response retest (AID 1117319); Virion infectivity factor (Human immunodeficiency virus type 1 group M subtype B (isolate …; TR-FRET GST-Vif / biotin-A3G peptide binding; higher % means a stronger effect; test concentration not given here; strong numbers were not always called active; inhibition, %, or IC50 in µM where a hit was titrated; 260,000 tested, 0.57% active;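 active = above the screen mean plus three standard deviations and confirmed in dose response; inconclusive = results disagree or hit not tested in dose response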;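 also: Vif residues 1-94 fused to GST binding biotinylated APOBEC3G peptide 110-148; 0% = full assay without inhibitor and 100% = GST in place of GST-Vif; retest series ran down from 100 µM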
* marks the source's active call; other numbers are inactive results; ? = inconclusive; . = no result given; & = joins results of further samples.

SMILES	HNF4A DNA FP	ALR inh	LANA-H2A inh	RanGTP-Impb inh	Beta2AR agonist	Calb FLC	Vif A3G
CCOc1ccc(NC(=S)N2CCc3cc(OC)c(OC)cc3C2COc2ccc3c(C)cc(=O)oc3c2)cc1 (configuration not stated)	-3.6	-2	-1.2	2.2	-2	-3	.
c1ccc(-n2ncc3c(NCc4ccc5c(c4)OCO5)ncnc32)cc1	2.4	2	1.7	4.1	0	-18	-10%
CCOc1ccc(NC(=O)CCN2CCN(c3ccccc3OC)CC2)cc1	1.3	4	-6.9	7.9	4	12	5%
COc1cc(CNC2CCCc3ccccc32)cc(OC)c1OC (configuration not stated)	5.3	-5	6.1	-3.2	-1	-22	.
COP(=O)(OC)c1nc(-c2cccc3ccccc23)oc1N1CCOCC1	-3.3	-6	1.8	2.5	11	14	.
CC(NS(=O)(=O)/C=C/c1ccccc1)C(=O)NCCc1ccc(S(N)(=O)=O)cc1 (configuration not stated)	4.3	.	.	-2.7	8	5	13%
Cc1nc2nc(C)c(CCC(=O)NC(C)c3ccc4c(c3)OCCO4)c(C)n2n1 (configuration not stated)	4.7	2	-4.7	2.9	3	-15	-6%
Nc1cc(C(=O)O)ccc1N1CCCCC1	-2.1	33	4.0	-0.8	1	-6	15µM*
Nc1cc(N)nc(SCC(=O)NCC2CCCO2)n1 (configuration not stated)	-0.8	-1	7.4	-1.7	2	-8	?
CCCC(OC(=O)CC1Sc2ccccc2NC1=O)C(=O)NCc1ccco1 (configuration not stated)	-1.4	-1	-4.8	5.6	-6	1	8%
N=c1c(-c2nc3ccccc3[nH]2)cc(C(=O)c2ccco2)nn1-c1ccccc1	-1.5	.	-2.1	3.2	-14	1	10%
Nc1ccc(N2CCN(c3cccc(Cl)c3)CC2)cc1	0.2	.	.	1.3	-3	101*	?
CC(C)N1CCN(Cc2cccn2-c2cccnc2)CC1CCO (configuration not stated)	0.7	-8	-4.1	0.1	-11	39	7%
CC1=CCC2C(=O)N(c3nc4ccccc4n3C)C(=O)C2C1 (configuration not stated)	-2.0	-9	9.1	3.9	-5	-3	25%
CSc1ncccc1C(=O)OCC(=O)NC1CCS(=O)(=O)C1 (configuration not stated)	2.6	-12	1.9	-1.3	3	-6	20%
Cc1ccc(C(NC(=O)CN2C(=O)NC3(CCCC3)C2=O)c2ccccc2)cc1 (configuration not stated)	0.9	-6	-0.9	.	11	.	0%
CCc1cc2cc(C)cc(C)c2nc1SCC(=O)NNC(=O)c1ccco1	-1.5	2	1.6	-0.1	3	-10	.
CCN(Cc1ccncc1)C(=S)Nc1ccc(Cl)cc1	2.1	-3	-2.1	?	7	8	.
C/C(=N\OCc1ccc(C#N)cc1)c1ccc(S(=O)(=O)N(C)C)cc1	0.4	1	2.0	2.8	0	1	2%
Cc1nnc(SCc2cc(=O)[nH]c(Nc3nc(C)c4cc(C)c(C)cc4n3)n2)s1	32	9	-2.8	2.0	24	?	-10%
COc1cccc(C(=O)N/N=c2\sc3ccccc3n2C)c1	2.6	67	0.8	1.5	-5	-3	.
CN(C)/N=C/c1ccc(/C=N/NC(N)=S)o1	11	99*	4.3	-1.2	7	-5	11%
Cc1ccc2c(c1)N(CC(=O)NCC1CCCO1)C(=O)CO2 (configuration not stated)	0.2	1	3.3	-3.2	4	3	.
CCOC(=O)C(=NCCCN(C)C)NNc1ccc(Br)cc1	2.1	99*	-2.2	2.1	1	?	2%
CC(=O)N1CCN(C(=O)c2ccc(Cl)c(S(=O)(=O)N3CC(C)OC(C)C3)c2)CC1 (configuration not stated)	5.2	-1	0.1	.	-3	.	-3%
O=C(NCC1CCCN(C(=O)CN2CCCCC2)C1)c1ccccc1Cl (configuration not stated)	0.2	-2	-0.8	-1.4	-11	-7	?
O=C(O)c1c2c(nc3ccc(S(=O)(=O)N4CCC(C(=O)NCc5ccc(Cl)cc5)CC4)cc13)CCCC2	8.7	-5	-2.2	4.8	6	-14	2%
OCC[C@H]1C[C@H](O)[C@@H](O)[C@@]2(OCCCc3ccccc32)O1	2.4	.	-1.9	.	-6	.	.
CCOC(=O)C1(C)NC(c2ccccc2F)C2C(=O)N(c3cccc(C(C)=O)c3)C(=O)C21 (configuration not stated)	0.9	-6	3.1	0.8	1	-8	0%
O=C(Nc1ncccc1Cl)c1ccccc1F	1.3	-6	0.7	-0.9	-4	16	.

Some of the entries so far, field by field:
Structure: O=C(O)c1c2c(nc3ccc(S(=O)(=O)N4CCC(C(=O)NCc5ccc(Cl)cc5)CC4)cc13)CCCC2
- HNF4A DNA FP: 8.7
- ALR inh: -5
- LANA-H2A inh: -2.2
- RanGTP-Impb inh: 4.8
- Beta2AR agonist: 6
- Calb FLC: -14
- Vif A3G: 2%

Structure: OCC[C@H]1C[C@H](O)[C@@H](O)[C@@]2(OCCCc3ccccc32)O1
- HNF4A DNA FP: 2.4
- ALR inh: .
- LANA-H2A inh: -1.9
- RanGTP-Impb inh: .
- Beta2AR agonist: -6
- Calb FLC: .
- Vif A3G: .

Filtered by structure, the compounds so far containing an NH in an aromatic ring
SMILES	HNF4A DNA FP	ALR inh	LANA-H2A inh	RanGTP-Impb inh	Beta2AR agonist	Calb FLC	Vif A3G
N=c1c(-c2nc3ccccc3[nH]2)cc(C(=O)c2ccco2)nn1-c1ccccc1	-1.5	.	-2.1	3.2	-14	1	10%
Cc1nnc(SCc2cc(=O)[nH]c(Nc3nc(C)c4cc(C)c(C)cc4n3)n2)s1	32	9	-2.8	2.0	24	?	-10%

The results go on:
Molecule,HNF4A DNA FP,ALR inh,LANA-H2A inh,RanGTP-Impb inh,Beta2AR agonist,Calb FLC,Vif A3G
Cc1nn(Cc2ccccc2)c(C)c1CNC(=O)[C@H](C)N=C1NS(=O)(=O)c2ccccc21,1.1,-4,13,.,-2,.,10%
CCCC(C1=C(O)CC(C)(C)CC1=O)C1C(=O)CC(C)(C)CC1=O (configuration not stated),4.0,5,-2.2,1.7,0,5,.
COC(=O)c1cc(Cl)cc(Cl)c1OS(=O)(=O)N(C)C,0.1,99*,1.8,1.3,0,1,-1%
CCN(CC)S(=O)(=O)c1ccc(NN=C2CCN(C)CC2)c([N+](=O)[O-])c1,0.2,.,0.1,-5.9,-2,-26,.
Cc1cc(C)c(S(=O)(=O)c2cccc(C)c2C)c(=O)[nH]1,2.9,.,-2.2,3.8,-2,-1,-4%
CCn1c(C(=O)N2CCCC(C(=O)NCCCc3ccccc3)C2)cc2sccc21 (configuration not stated),-1.2,-4,0.1,0.9,-6,?,-4%
O=C(Cn1cc(C(F)(F)F)ccc1=O)N1CCCc2ccccc21,-3.5,7,0.2,.,2,.,0%
O=C(NCC1(N2CCOCC2)CCCCC1)c1cccc(S(=O)(=O)N2CCc3ccccc3C2)c1,0.9,-1,3.1,-1.5,10,-11,19%
COc1cc(C)c(Br)cc1S(=O)(=O)NCc1ccncc1,-2.1,-4,-5.8,0.2,-8,-21,13%
O=C(Nc1cc(C(F)(F)F)ccc1N1CCCC1)C1CCCO1 (configuration not stated),1.6,7,-1.4,.,39,.,18%
COCCn1c(SCC(=O)N2CCOCC2)nnc1-c1ccco1,1.2,-4,1.7,-3.6,1,-1,.
Cc1ccccc1OCCC(=O)OCC(=O)NCCNC(=O)COC(=O)CCOc1ccccc1C,2.2,22,-3.6,4.2,-6,-1,-10%
CC1=C(C(N)=O)C(c2ccccn2)n2nc(SCc3ccccc3)nc2N1 (configuration not stated),-3.9,15,4.3,0.9,-1,5,0%
CC(CN1CCCCC1)OC(=O)/C=C/c1ccccc1 (configuration not stated),-1.3,-22,1.3,-1.4,-3,-2,-5%
COc1cc(/C=N\NC(=O)c2ccc(=O)[nH]n2)cc(OC)c1OC,1.4,-9,-0.5,0.6,-3,0,8%
Cc1nc2scc(-c3cccs3)c2c(=O)n1N,1.7,.,.,-2.3,1,-14,28%
Cc1cc(C)nc(NS(=O)(=O)c2ccc(N/C=C\C(=O)c3ccc(Cl)cc3)cc2)n1,1.0,36,1.3,-7.9,6,0,-4%
C#CCOCCOCCOCCNc1nc(N2CCN(C(=O)CCCCCCCCCCNC(=O)[C@H](CCCCN)n3cc(C)nn3)CC2)nc(N2CCN(C(=O)CCCCCCCCCCNC(=O)[C@H](CCCCN)n3cc(CCCC(=O)O)nn3)CC2)n1,38*,-3,-1.2,.,16,.,.
COC(=O)c1c(NC(=O)c2ccccc2N(C)S(=O)(=O)c2ccccc2)sc2c1CCCC2,-3.7,.,.,-1.3,-3,-4,-8%&-11%
COc1ccc(NC(=S)NCCc2c(C)[nH]c3ccc(OC)cc23)cc1,-0.1,22,-5.3,-7.2,1,6,-3%
O=C(c1ccccc1F)N1CCN(c2cccc(C(F)(F)F)c2)CC1,2.9,0,-1.3,-0.5,6,-9,8%
CCOC(=O)c1c(NC(=S)Nc2ccccc2)sc(C)c1C,0.6,1,2.9,2.7,5,0,.
NC(=O)c1cc2cc(Br)ccc2oc1=NCc1ccccc1,0.2,6,0.3,?,-10,1,-12%
Cc1ccc(-n2c(SCC(=O)Nc3ccc(Cl)cc3)nc(O)cc2=O)cc1,-0.3,94*,-0.5,1.8,0,-8,.
O=C1NC(=O)/C(=C/c2ccc(OS(=O)(=O)c3ccc(F)cc3F)cc2)N1,-0.5,-2,1.7,3.8,16,8,.
COc1ccc(CNS(=O)(=O)c2cc(-c3cc(C)no3)ccc2OC)cc1OC,15,-1,1.3,1.7,-6,-18,.
COc1ccc(C(=O)NC(=S)NC2CCCCC2)cc1,0.5,3,-3.7,2.7,.,-4,.
CCn1c(COc2ccccc2)nnc1SCC(=O)Nc1cc(C)ccc1OC,-2.5,-3,3.0,0.8,1,-14,3%
Cc1ccc(C(=O)NNC(=O)c2ccncc2)cc1C,-3.6,.,-3.9,-6.6,3,-5,.
CCOC(=O)c1c(NC(=O)CSC(=S)N2CCOCC2)sc(C)c1C,3.4,98*,-4.8,-0.3,2,?,.
CC(C)N=C(Nc1ccccc1)c1cccnc1,-0.8,.,4.3,-0.3,-7,6,-5%
COc1ccc(NC(=S)NN2CCOCC2)cc1OC,-1.3,29,-1.1,4.7,-7,-2,.
CCN(CC)c1ccc(NC(=S)NCC2CCCO2)cc1 (configuration not stated),-2.0,100*,-5.7,-4.2,-1,-5,-3%
COc1ccc(NC(=O)CN(C)C(=O)c2sc3cc(Cl)ccc3c2Cl)cc1,0.5,-4,6.1,2.5,-12,-5,-11%

Source: PubChem
